rRNA inh HTS: selective bacterial rRNA inhibition in E. coli. AID 720706. E. coli WT GFP vs humanized-ribosome RFP mutants, fluorescence, 24 h; hits give low values; DMSO median 0, no signal -100. hit rate 1.6% among 350,000. GFP signal change (wild-type ribosome), % (no concentration beside the values);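 active means significant combined selectivity score with lowered wild-type GFP, culture density cut under 30%, mutant RFP and density less affected; inactive means any of these conditions unmet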; further: one replicate is shown; some compounds called inactive have numbers as strong as hits
MLL AF4-AF9 inh: blocks AF4 peptide binding to human AF9. inhibition, % at 10 µM. hit rate 0.47% among 350,000. AlphaScreen, biotin-AF4 peptide binding to FLAG-AF9. P42568;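 active means every replicate reaching a set inhibition limit, whatever the replicate mean, cut at about 25% in these data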;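 further: 0% = plate neutral control median and 100% = total signal loss; the record names both 10 and 1 µM as test concentration; the first replicate is given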
Target sequence (P42568 whole entry, looked up): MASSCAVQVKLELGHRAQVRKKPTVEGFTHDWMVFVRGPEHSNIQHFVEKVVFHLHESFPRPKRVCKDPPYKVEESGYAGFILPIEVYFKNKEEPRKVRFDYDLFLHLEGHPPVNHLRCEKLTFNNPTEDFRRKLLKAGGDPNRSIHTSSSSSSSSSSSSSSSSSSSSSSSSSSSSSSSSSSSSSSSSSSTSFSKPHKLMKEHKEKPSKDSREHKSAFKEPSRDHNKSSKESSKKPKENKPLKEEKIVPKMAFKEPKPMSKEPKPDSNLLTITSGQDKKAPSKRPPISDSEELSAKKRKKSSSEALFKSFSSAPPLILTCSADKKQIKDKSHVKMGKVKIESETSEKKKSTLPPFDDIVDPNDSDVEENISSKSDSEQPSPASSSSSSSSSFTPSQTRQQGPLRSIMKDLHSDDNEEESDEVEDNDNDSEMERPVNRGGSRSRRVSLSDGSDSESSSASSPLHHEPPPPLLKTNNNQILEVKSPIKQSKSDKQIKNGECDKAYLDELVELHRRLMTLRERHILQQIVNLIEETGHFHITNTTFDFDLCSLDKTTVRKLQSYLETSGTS
FGF22 binding: binders of recombinant human FGF22 by thermal shift. calls only at 9.99 µM. SYPRO orange fluorescence; percent of sucrose octasulfate shift, DMSO zero. Q9HCT0. AID 651658. hit rate 1.5% among 340,000;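 active means melting point raised past a set limit in the mean and every replicate; three in four hits are not shown here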
Target sequence (Q9HCT0 whole entry, looked up): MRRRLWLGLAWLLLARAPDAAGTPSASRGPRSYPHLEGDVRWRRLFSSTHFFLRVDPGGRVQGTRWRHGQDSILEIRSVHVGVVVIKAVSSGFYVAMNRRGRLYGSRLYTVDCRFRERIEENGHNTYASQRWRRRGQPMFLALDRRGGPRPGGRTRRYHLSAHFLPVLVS
rRNA inh HTS OD600: second read-out of rRNA inh HTS, no call of its own (marks repeat the call); OD600 change, %; measured here: OD600 growth;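 optical density of the mix in the first replicate; 0 = DMSO median and -100 = no signal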
rRNA inh HTS RFP: further read-out of rRNA inh HTS, marked with its call; RFP signal change, %; measured here: RFP humanized mutant strains;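 first replicate; 0 = DMSO median and -100 = no signal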
Starred values were filed as active, the others as inactive; i = inactive; + = active, no number; & = joins results of further samples. This is a subset; rates above refer to the full screens.

compound	rRNA inh HTS	rRNA inh HTS OD600	rRNA inh HTS RFP	MLL AF4-AF9 inh	FGF22 binding
CC(C)CNc1cccc2c1S(=O)(=O)N[C@@H](Cc1ccccc1)CO2	-3	-21	-8.3	-1.4	i
C[C@@H]1CN([C@@H](C)CO)S(=O)(=O)c2ccc(Br)cc2O[C@H]1CN(C)C(=O)C1CCOCC1	-5&6	-6&7	-6.3&-1.3	-4.9&-1.5	i
O=C(NCc1ccc(F)cc1)Nc1nnc([C@@H]2C[C@H](O)[C@@H](CO)O2)s1	6	18	-1.8	-1.3	i
CO[C@@H]1CN(C)C(=O)c2cc(NC(=O)Nc3cc(F)ccc3F)ccc2OC[C@H](C)N(C)C[C@@H]1C	2	6	0.7	-15	i
Cc1cccnc1CNC(=O)C1(C)CCCN1CC(C)C (centres undefined)	14	12	5.0	-0.8	i
C[C@@H]1CN([C@H](C)CO)C(=O)c2cc(C#CCc3ccccc3)cnc2O[C@@H]1CN(C)C(=O)C1CCCCC1	2	1	1.2	-0.8	i
CCC(=O)Nc1ccc2c(c1)OC[C@@H](C)N(C(=O)c1ccncc1)C[C@H](C)[C@@H](OC)CN(C)C2=O	1	7	-2.5	-1.8	i
C[C@H](CO)N1C[C@H](C)[C@H](CN(C)Cc2ccc(Cl)c(Cl)c2)OCc2cnnn2CCCC1=O	-12	-23	2.3	2.9	i
O=C(NC[C@@H]1[C@@H](c2ccccc2)[C@@H](CO)N1CC1CCCC1)c1ccncc1	1	-5	-2.3	1.1	i
CC(=O)N[C@@H]1CC[C@@H](CC(=O)NCC2CCCCC2)O[C@H]1CO	-2	6	1.5	-4.6	i
C[C@@H]1CCCCO[C@@H](CN(C)C(=O)Nc2ccc3c(c2)OCO3)[C@H](C)CN([C@@H](C)CO)C(=O)c2cc(NC(=O)Nc3ccc(C(F)(F)F)cc3)ccc2O1	-1	4	-1.4	-2.0	i
Cc1ccccc1-c1ccc([C@@H]2[C@H](CO)N3CCCCN(C(=O)Nc4ccc(F)cc4)C[C@@H]23)cc1	-60	-72	-9.0	11	i
C[C@H]1CN([C@@H](C)CO)S(=O)(=O)c2ccc(-c3cccnc3)cc2O[C@H]1CN(C)Cc1ccncc1	0	-4	-3.0	5.6	i
C[C@@H]1CN([C@H](C)CO)C(=O)c2c(c3ccccc3n2C)-c2ccccc2CO[C@H]1CN(C)C(=O)C1CC1	0	-1	-2.7	-3.1	i
COc1cc2c(cc1CNC[C@H]1O[C@@H](n3cnc(C(N)=O)n3)[C@H](O)[C@@H]1O)OCO2	16	14	0.5	-0.6	i
CC(C)C#Cc1ccc2c(c1)O[C@H](CN(C)C(=O)Cc1ccccn1)[C@H](C)CN([C@H](C)CO)S2(=O)=O	-2	-12	-0.8	0.7	i
O=C(C[C@@H]1CC[C@H]2[C@@H](COC[C@@H](O)CN2Cc2cccc(F)c2)O1)NCCc1ccncc1	0	-11	-2.2	0.4	i
COc1ccc(S(=O)(=O)Nc2ccc3c(c2)C(=O)N([C@@H](C)CO)C[C@@H](C)[C@@H](CN(C)C(=O)c2ccccc2)OCCCC[C@@H](C)O3)cc1	-2	-6	-1.5	-0.7	i
C[C@H](CO)N1C[C@H](C)[C@@H](CN(C)C(=O)Nc2ccc(-c3ccccc3)cc2)OCc2ccccc2-c2c(n(C)c3ccccc23)C1=O	6	3	-0.9	2.5	i
COc1cccc(S(=O)(=O)N(C)C[C@H]2Oc3ncc(C#CCC(C)C)cc3C(=O)N([C@@H](C)CO)C[C@H]2C)c1	5	-3	2.7	1.7	i
CCOc1ccccc1N(CC(=O)N1CCN(Cc2ccccc2)CC1)S(=O)(=O)c1ccccc1	-13	-52	-8.5	3.9	i
O=C(C[C@@H]1CC[C@@H]2[C@H](COC[C@H](O)CN2CC2CCCCC2)O1)NCc1ccc(Cl)cc1	-58	-74	-19	1.5	i
C[C@H]1CN([C@@H](C)CO)C(=O)c2cccc(NS(=O)(=O)c3ccc(F)cc3)c2O[C@H]1CN(C)C(=O)Nc1ccc(F)cc1	-4	4	2.0	0.0	i
CNC[C@@H]1OCCCC[C@@H](C)Oc2ccc(NC(=O)c3ccncc3)cc2C(=O)N([C@H](C)CO)C[C@@H]1C	5	3	-3.2	-13	i

Sorted by the number under rRNA inh HTS OD600 (descending): 3 of the compounds above.
compound	rRNA inh HTS	rRNA inh HTS OD600	rRNA inh HTS RFP	MLL AF4-AF9 inh	FGF22 binding
C[C@H](CO)N1C[C@H](C)[C@@H](CN(C)C(=O)Nc2ccc(-c3ccccc3)cc2)OCc2ccccc2-c2c(n(C)c3ccccc23)C1=O	6	3	-0.9	2.5	i
O=C(C[C@@H]1CC[C@H]2[C@@H](COC[C@@H](O)CN2Cc2cccc(F)c2)O1)NCCc1ccncc1	0	-11	-2.2	0.4	i
O=C(C[C@@H]1CC[C@@H]2[C@H](COC[C@H](O)CN2CC2CCCCC2)O1)NCc1ccc(Cl)cc1	-58	-74	-19	1.5	i

(list continues)
compound	rRNA inh HTS	rRNA inh HTS OD600	rRNA inh HTS RFP	MLL AF4-AF9 inh	FGF22 binding
Cc1ccccc1S(=O)(=O)NCC[C@H]1CC[C@@H](NC(=O)C2CCCC2)[C@@H](CO)O1	0	-1	-5.4	1.6	i
O=C(Nc1ccc2c(c1)[C@@H]1C[C@@H](CC(=O)N3CCc4ccccc4C3)O[C@H](CO)[C@@H]1O2)C1CCC1	-1	-4	-1.4	0.3	i
CC(C)Oc1cc(F)ccc1-c1cc(C(=O)Nc2ccccc2)[nH]n1	-31	-39	-3.7	-10	i
C[C@@H]1CN([C@H](C)CO)C(=O)c2cc(NC(=O)Nc3ccccc3)ccc2O[C@H]1CN(C)C(=O)Nc1cccc2ccccc12	0	3	2.3	-0.3	i
Cc1noc(C)c1NC(=O)NCC[C@H]1CC[C@H](NC(=O)c2ccc(F)cc2)[C@@H](CO)O1	3	4	-1.0	7.2	i
CC(=O)N(C)C[C@H]1Oc2ncc(C#CCc3ccccc3)cc2C(=O)N([C@@H](C)CO)C[C@H]1C	5	10	-3.2	-3.0	i
O=C(Nc1ccc2c(c1)[C@H]1C[C@@H](CC(=O)N3CCOCC3)O[C@@H](CO)[C@H]1O2)NC1CCCCC1	1	6	-3.0	-0.7	i
CN1OC[C@@H]2CN(C(=O)C(C)(C)C)[C@H](c3ccc(-c4cccnc4)cc3)C[C@@H]21	5	12	-1.9	-0.9	i
CC(=O)N1[C@H](C(=O)NCc2ccccc2Cl)[C@@H](CO)[C@@H]2Cn3c(ccc(-c4ccccc4)c3=O)[C@@H]21	4	6	-0.7	-0.7	i
C[C@@H]1CN([C@@H](C)CO)C(=O)c2cc(NC(=O)Cc3ccccc3)ccc2O[C@@H]1CN(C)S(=O)(=O)c1ccc(Cl)cc1	-1	-9	-0.4	-2.9	i
CC1CCCCC1NC(=O)CSc1nnc(-c2ccco2)n1N (centres undefined)	0	8	-1.5	-0.8	i
C[C@@H]1CCCCO[C@@H](CN(C)C(=O)c2ccncc2)[C@@H](C)CN([C@@H](C)CO)C(=O)c2cc(NS(=O)(=O)c3ccc(Cl)cc3)ccc2O1	-2	-2	-1.5	-6.5	i
C[C@@H]1CN([C@H](C)CO)C(=O)c2cccc(NS(=O)(=O)c3ccccc3)c2O[C@@H]1CN(C)S(=O)(=O)c1cn(C)cn1	2	7	0.0	-22	i
C/C=C/c1ccc([C@H]2[C@H](CO)N3C(=O)CN(C(=O)Nc4cccc(OC)c4)C[C@@H]23)cc1	0	6	-1.3	-0.4	i
COc1ccccc1C#Cc1cnc2c(c1)C(=O)N([C@@H](C)CO)C[C@@H](C)[C@@H](CN(C)C(=O)CN(C)C)O2	4	15	0.1	8.7	i
C=CC(=O)N1C/C(=C/c2ccccc2)C(=O)/C(=C\c2ccccc2)C1	-44*	-51*	-13*	7.7	i
O=C(Nc1ccccc1)C1Cc2c(-c3cccc(F)c3)ccnc2O1 (centres undefined)	4	-6	-1.5	-15	i
COc1ccc(CN2[C@@H](CO)[C@@H]3c4ccccc4N(C(=O)c4ccccc4)C[C@@H]32)cc1	-3	-17	3.0	2.3	i
COc1ccccc1NC(=O)N(C)C[C@H]1Oc2cc(Br)ccc2S(=O)(=O)N([C@H](C)CO)C[C@H]1C	-11&-2	-11&1	-2.7&-1.0	-0.9&-0.2&-0.2	i
C[C@H]1CN([C@@H](C)CO)C(=O)c2cc(C3=CCCC3)cnc2O[C@H]1CN(C)Cc1ccc(F)cc1	-1	-1	1.1	-4.4	i
COc1cc(NCCCn2cnc3c(OC)ncnc32)cc(OC)c1OC	-2	11	1.9	-4.0	i
CN(C)CC(=O)Nc1ccc2c(c1)[C@@H]1C[C@@H](CC(=O)NCc3cccnc3)O[C@H](CO)[C@@H]1O2	2	1	-1.8	-0.6	i
COCC#Cc1cnc2c(c1)C(=O)N([C@H](C)CO)C[C@@H](C)[C@H](CN(C)C(=O)C1CCC1)O2	3	14	-2.2	-6.0	i
Cn1cnc(S(=O)(=O)N2C[C@H](O)COC[C@@H]3O[C@H](CC(=O)NC4CCCC4)CC[C@H]32)c1	9	19	-2.4	-0.2	i
CCCC(=O)Nc1ccc2c(c1)C(=O)N(C)C[C@H](OC)[C@H](C)CN(C(=O)c1ccccn1)[C@H](C)CO2	-1	4	-1.2	1.0	i
Cc1cccc(CN(C)C[C@@H]2Oc3ncc(-c4cccc(C(F)(F)F)c4)cc3C(=O)N([C@H](C)CO)C[C@@H]2C)c1	-2	-10	7.2	5.5	i
CN1CCN(C(=O)C[C@H]2C[C@H]3c4cc(NC(=O)Nc5ccc(C(F)(F)F)cc5)ccc4O[C@H]3[C@@H](CO)O2)CC1	-50	-69	-2.7	17	i
CCC(=O)N(CC)C[C@@H]1[C@@H](c2ccc(-c3ccccc3)cc2)[C@H](CO)N1C(C)=O	-1	2	0.9	1.6	i
CCCCC#Cc1ccccc1COC[B-](F)(F)F	-10	-25	-1.4	-9.3	+
COc1ccccc1NC(=O)N(C)C[C@H]1Oc2ncc(C#CCC(C)C)cc2C(=O)N([C@H](C)CO)C[C@H]1C	-2	-2	-2.4	0.3	i
O=C(N[C@@H]1CC[C@@H](CCn2cc(Cc3ccccc3)nn2)O[C@H]1CO)c1cnccn1	2	8	-1.5	-0.6	i
CN(C[C@@H]1N[C@H](CO)[C@H]1c1ccccc1)C(=O)c1ccccn1	1	5	-2.9	-2.9	i
C[C@@H]1CN([C@H](C)CO)C(=O)c2cccc(NC(=O)c3nc4ccccc4s3)c2O[C@H]1CN(C)S(=O)(=O)c1cccs1	-1	0	4.0	-0.4	i
Cc1ccc(S(=O)(=O)Nc2ccc3c(c2)CC(=O)N([C@H](C)CO)C[C@H](C)[C@H](CN(C)C(=O)NC(C)C)O3)cc1	2	0	-1.8	-0.3	i
C[C@H](NC(=O)[C@H]1[C@H](CO)[C@H]2Cn3c(ccc(-c4ccccc4F)c3=O)[C@@H]1N2)c1ccccc1	1	7	-0.6	-0.6	i
O=C(C[C@H]1CC[C@H]2[C@@H](COC[C@H](O)CN2Cc2cc(F)ccc2F)O1)N[C@H]1CCN(Cc2ccccc2)C1	0	0	-1.6	14	i
COc1cccc(C(=O)N2C[C@@H]3[C@H](c4ccccc42)[C@@H](CO)N3C(=O)c2ccc(F)cc2)c1	0	-4	-0.9	-4.7	i
Cc1noc(C)c1NC(=O)Nc1ccc2c(c1)C(=O)N([C@@H](C)CO)C[C@H](C)[C@H](CN(C)Cc1ccc(Cl)c(Cl)c1)OCCCC[C@@H](C)O2	0	-12	6.4	4.2	i
CO[C@H]1CN(C)C(=O)c2ccc(NC(=O)C3CC3)cc2OC[C@@H](C)N(C(=O)NC(C)C)C[C@@H]1C	-1	2	-0.7	-1.5	i
COc1c(Cl)c(=O)oc2ccc(Cl)cc12	6	-1	1.8	-2.2	i
O=C(Cc1ccccn1)N[C@H]1CC[C@@H](CCn2cc(-c3cccnc3)nn2)O[C@@H]1CO	-1	-1	-1.1	1.0	i
COCC(=O)N1CC2(C1)CN(Cc1cccc(Cl)c1)[C@H](CO)c1[nH]c3cc(OC)ccc3c12	-4	-9	-1.3	0.3	i
C[C@@H]1CN([C@H](C)CO)S(=O)(=O)c2ccc(C#CC3CC3)cc2O[C@H]1CN(C)C(=O)c1ccccn1	-15	-49	-14	-4.0	i
CO[C@@H](C(=O)N(C)C[C@H]1OCc2ccccc2-c2ccccc2C(=O)N([C@H](C)CO)C[C@@H]1C)c1ccccc1	2	5	-0.2	-5.2	i

Entries listed so far that contain bromine:
compound	rRNA inh HTS	rRNA inh HTS OD600	rRNA inh HTS RFP	MLL AF4-AF9 inh	FGF22 binding
C[C@@H]1CN([C@@H](C)CO)S(=O)(=O)c2ccc(Br)cc2O[C@H]1CN(C)C(=O)C1CCOCC1	-5&6	-6&7	-6.3&-1.3	-4.9&-1.5	i
COc1ccccc1NC(=O)N(C)C[C@H]1Oc2cc(Br)ccc2S(=O)(=O)N([C@H](C)CO)C[C@H]1C	-11&-2	-11&1	-2.7&-1.0	-0.9&-0.2&-0.2	i

Assay outcomes as filed in PubChem.
